# Screens: PubChem, several laboratories
# Calpain2 inh = blocks pig calpain II enzyme activity; inhibition, % at 16 µM; 220,000 tested, 0.37% active; purified calpain II, fluorogenic peptide substrate, 30 min;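 active = inhibition above about 50%, limit read from the data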
# PERK inhibitor = inhibitors of human PERK kinase | Q9NZJ5 | CHO PERK-DD fusion, SEAP luminescence translation reporter | inhibition, % at 5.6 µM | 220,000 tested, 0.17% active | AID 1416;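 active = inhibition above the mean inhibition of all tested compounds plus 3 SD, set separately per screening campaign, cut at about 2.9% in these data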;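 also: PERK kinase domain activated by AP20187 dimerizer at 100 nM; 0% = DMSO with dimerizer and 100% = rapamycin at 8.4 µM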
# Cl transport mod = modulates chloride dependent transport by human KCC2; Q9H2X9; B-score of Tl+ flux slope (higher = more flux/activation; lower = inhibition) at 10 µM; AID 1456; KCC2 cells, thallium flux FluoZin-2 fluorescence; 190,000 tested, 2.2% active;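 active = thallium flux slope and its plate-corrected score both differing from the plate sample mean at a set confidence after two filtering rounds, in either direction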;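 also: slope of fluorescence scaled to starting intensity during 10 to 20 s after thallium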
# Rad51 HR inh = Rad51 (human) homologous recombination inhibition; inhibition, % at 10 µM; hRad51 DNA strand exchange, fluorescence dequenching; 200,000 tested, 0.085% active; Q06609;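 active = inhibition above 40% at the single screening dose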;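 also: 0% = DMSO control wells and 100% = blanks with heterologous ssDNA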
#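 System: hRad51 filaments on single-stranded DNA; reagent: Fluorescein- and BHQ1-tagged 47-mer duplex; compound dosing: one concentration, 10 µM final; timing: filaments 15 min 37 °C, then compound 30 min; measured by: fluorescein emission 520 nm, excitation 485 nm; benchmarks: per-plate controls and blanks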
# Furin inhibitor = inhibitors of human furin; P09958; inhibition, % at 30 µM; purified furin, fluorogenic substrate cleavage; 220,000 tested, 0.061% active; in the data active = inhibition above about 25%; also: inactives centre near -15
# * hit, by the source's call; · = no result given; [ ] = remark or other dose. An excerpt; the hit share may differ from the screen's.
1) COc1ccc(C(=O)n2cnnc2N)cc1
2) Cc1cc(=O)[nH]c(/N=C(\N)Nc2ccc(Oc3ccccc3)cc2)n1
3) CC(=O)Nc1ccc(OC(=O)c2ccco2)cc1
4) O=C(c1cccs1)n1nc(-c2ccco2)nc1SCc1ccccc1
5) CC(C)(C)c1ccc(C2(C)NC(=O)N(CC(=O)c3ccc[nH]3)C2=O)cc1 (stereo not given)
6) COc1ccc(OCC(=O)Nc2cccc3ncccc23)cc1
7) CCCC(=O)n1nc(-c2cccnc2)nc1NCc1ccc(OC)cc1
8) CSc1nc(-c2ccco2)nn1C(=O)c1ccc(C)cc1

screen / no. | 1 | 2 | 3 | 4 | 5 | 6 | 7 | 8
Furin inhibitor | -10[20 µM] | -21 | -23[20 µM] | -12[20 µM] | -8[20 µM] | -17[20 µM] | -30 | -22
Rad51 HR inh | 2 | -1 | 2 | -1 | 3 | 5 | 8 | 0
Calpain2 inh | -33 | -12 | 26 | -13 | 7 | 4 | -9 | -7
PERK inhibitor | 0.2 | 0.3 | 0.8 | 0.6 | -0.2 | 0.1 | 1.1 | 1.8
Cl transport mod | · | 0.065 | -0.63 | · | -0.83 | 1.2 | -2.8 | 0.2

9) COc1ccc(C(=O)n2cnc(N)n2)cc1
10) Nc1cc(OC(=O)c2cccs2)nn1S(=O)(=O)c1ccccc1
11) COc1ccc(C(=O)n2nc(-c3ccco3)nc2SC)cc1OC
12) Nc1cc(OC(=O)c2ccco2)nn1S(=O)(=O)c1ccc(F)cc1
13) C/C(=C\c1ccccc1)C(=O)n1nnc2ccccc21
14) COc1ccc(C(=O)n2nc(-c3ccco3)nc2N)cc1
15) CCOC(=O)CSc1n[nH]c(NC(=O)c2cccc(C)c2)n1
16) O=C(Oc1oc(-c2ccco2)nc1C=Nc1ccccc1)c1ccco1
17) CCOC(=O)c1cnn(C(=O)c2ccccc2)c1N

screen / no. | 9 | 10 | 11 | 12 | 13 | 14 | 15 | 16 | 17
Furin inhibitor | -17 | -23 | -11[20 µM] | -30 | -11[20 µM] | -15[20 µM] | -19[20 µM] | -25[20 µM] | -12
Rad51 HR inh | 7 | -4 | -5 | -11 | -4 | 2 | 3 | · | 21
Calpain2 inh | 2 | 5 | -37 | 4 | -13 | 0 | 7 | -53 | 25
PERK inhibitor | 1.7 | 1.1 | 0.3 | 2.6 | 0.1 | 1.4 | 1.1 | 1.8 | 0.2
Cl transport mod | -0.38 | 1.2 | -0.21 | 0.12 | -0.094 | 0.93 | · | -0.53 | 0.29
